GIRK2 activ – activators of human GIRK2 potassium channels | HEK293-GIRK2 thallium flux, Thallos fluorescence | calls only for hits at 25 µM | 0.05% of 63,000 active | AID 1259325, 2017;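 active = among the strongest 0.2% of first-round signals and kept after retests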;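 also: first round at about 10 µM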
Target sequence (P48051 whole entry, looked up): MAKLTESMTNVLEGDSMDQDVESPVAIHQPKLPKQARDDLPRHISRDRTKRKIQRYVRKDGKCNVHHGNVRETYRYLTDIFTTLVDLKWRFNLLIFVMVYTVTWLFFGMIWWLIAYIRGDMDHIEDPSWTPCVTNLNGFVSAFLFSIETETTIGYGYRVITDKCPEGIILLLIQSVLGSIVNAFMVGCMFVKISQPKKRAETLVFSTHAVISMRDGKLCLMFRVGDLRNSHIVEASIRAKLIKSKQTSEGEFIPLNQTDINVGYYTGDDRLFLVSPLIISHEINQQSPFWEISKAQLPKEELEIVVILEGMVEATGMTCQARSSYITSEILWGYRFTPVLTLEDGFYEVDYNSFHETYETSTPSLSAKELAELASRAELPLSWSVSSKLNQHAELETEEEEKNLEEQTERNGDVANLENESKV
Calls only; i = inactive; + = active, no number. This is a subset; count on the stated rates, not on these rows.

GIRK2 activ,Structure
i,CNC(=O)CSc1nnc(N2CCN(C(=O)C3COc4ccccc4O3)CC2)s1 (stereo not given)
i,O=C(CSc1nc2ccc([N+](=O)[O-])cc2[nH]1)N1CCN(c2ccccn2)CC1
i,COc1ccc(CC(C)(O)CNC(=O)C(=O)NCc2ccc(F)cc2)cc1 (stereo not given)
i,O=C(CCCCCn1c(=S)[nH]c2cc3c(cc2c1=O)OCO3)NCc1ccc(Cl)cc1
i,O=C(NCCn1nc(C2CC2)n(-c2ccccc2)c1=O)c1ccc2nsnc2c1
i,NS(=O)(=O)c1ccc(CCNC(=O)c2cnc3sccn3c2=O)cc1
i,CCOc1ccccc1CN1C(=O)C(NC(C)=O)c2cc(C)cc(C)c21 (stereo not given)
i,COc1ccccc1OCC(=O)NC(C)Cc1ccco1 (stereo not given)
i,Cc1nc(-c2ccccc2)sc1CNC(=O)c1cccc(Br)c1
i,CCOc1ccccc1-n1ccn(CC(=O)Nc2cc(C)on2)c(=O)c1=O
i,COCCOC(=O)c1c(C)n(C)c2ccc(O)cc12
i,CCSc1ccccc1C(=O)N1CCN(C(=O)C2CC2c2ccccc2)CC1 (stereo not given)
i,COc1ccc(NC(=O)c2cn(-c3cc(N4CCCC4)ncn3)cn2)cc1
i,Cc1ccccc1Cn1c(C2CC(=O)N(c3ccccc3)C2)nc2ccccc21 (stereo not given)
i,CC(C)=CCc1c2c(cc3ccc(=O)oc13)CC(C(C)(C)O)O2 (stereo not given)
i,O=C(Nc1nccs1)c1ccoc1COc1ccccc1
i,COc1ccc(-c2ccc(N3CCN(S(=O)(=O)Cc4ccccc4)CC3)nn2)cc1
i,Cc1cc(C)c(S(=O)(=O)NCCC(=O)NCc2cccnc2)cc1N(C)S(C)(=O)=O
i,Cc1onc(-c2ccccc2Cl)c1C(=O)N1CC(c2nc(-c3ccncc3)no2)C1
i,O=C(O)CCc1ccc(NCc2cccc(Oc3ccccc3)c2)cc1
i,CSc1cccc(-c2nnc(NC(=O)c3cc(-c4ccccc4)on3)o2)c1
i,O=C(CSCc1ccccc1)NCC1CCN(C(=O)c2ccncc2)CC1
i,O=C(CCS(=O)(=O)c1ccccc1)NCC1CCN(C2CCCC2)CC1
i,CCc1ccc(NC(=O)CSc2nnc3n(CCC(=O)NC(C)C)c(=O)c4ccccc4n23)cc1
i,COc1ccc(Br)c(C(=O)N2CCC3(CC2)OCCS3)c1
i,Cc1nc2scc(-c3cccc(NC(=O)COc4ccccc4F)c3)n2c(=O)c1C
i,CCSc1ccccc1C(=O)NCc1sc2nc(-c3ccc(F)cc3)cn2c1C
i,O=C(Cn1cnc2c(c1=O)CCCC2)Nc1ccc(Cl)c(Cl)c1
i,Nc1c(-c2nc(-c3ccc4c(c3)OCO4)cs2)nnn1-c1ccc(Br)cc1F
i,CC(C)C(=O)N1CCCC(c2nnc(-c3ccccc3F)s2)C1 (stereo not given)

Five consecutive compounds already listed, for reference:
GIRK2 activ,Structure
i,Cc1nc2scc(-c3cccc(NC(=O)COc4ccccc4F)c3)n2c(=O)c1C
i,CCSc1ccccc1C(=O)NCc1sc2nc(-c3ccc(F)cc3)cn2c1C
i,O=C(Cn1cnc2c(c1=O)CCCC2)Nc1ccc(Cl)c(Cl)c1
i,Nc1c(-c2nc(-c3ccc4c(c3)OCO4)cs2)nnn1-c1ccc(Br)cc1F
i,CC(C)C(=O)N1CCCC(c2nnc(-c3ccccc3F)s2)C1 (stereo not given)

The results go on:
GIRK2 activ,Structure
i,COC(=O)c1ccc(C2C(S(=O)(=O)c3ccccc3)=C(O)C(=O)N2c2ccc(Cl)cc2)cc1 (stereo not given)
i,CCCCn1c2c(c(=S)[nH]c1=O)CCC2
i,Cc1oc(S(=O)(=O)N2CCCCC2)cc1NC(=O)Nc1ccccc1
i,COCCCn1c(C(=O)NCc2ccc(OC)cc2)cc2c(=O)n3cccc(C)c3nc21
i,Cc1cc(C(F)(F)F)nc(CCNC(=O)Nc2ccc(C(C)(C)C)cc2)n1
i,COc1ccccc1-n1c(C)c(C)n2c3c(=O)n(CCN4CCOCC4)c(=O)n(C)c3nc12
i,COc1ccc(-n2nnc(C(=O)NCc3ccc(Cl)cc3)c2-c2cccnc2)cc1
i,Cc1cccc(C(=O)N=C2SC3CS(=O)(=O)CC3N2c2cccc(Br)c2)c1 (stereo not given)
i,Cc1nnc2c(SCC(=O)Nc3ccc(Br)cc3F)nc3ccccc3n12
i,CCCCNC(=O)Cc1ccc(-n2c(=O)c3ccccc3n(CC(=O)NCc3ccccc3)c2=O)cc1
i,COc1cc(C(=O)Nc2ccc(C)c(N3CCCC3=O)c2)cc(OC)c1OC
i,CCN(CC)c1nc2ccsc2c(=O)n1CCC(=O)NCc1ccccc1
i,CC(C)N(CC#CCNC(=O)NCc1cccc2ccccc12)C(C)C
i,CS(=O)(=O)N1CCc2nc(NC(=O)c3ccc4ncsc4c3)sc2C1
i,O=C1CCCCN1c1ccc(NS(=O)(=O)c2cccs2)cc1
i,Cc1ccccc1CNC(=O)C1CCN(c2nc3ccsc3c(=O)n2Cc2ccc(F)cc2)CC1
i,O=C(CCCn1c(=S)[nH]c2cc3c(cc2c1=O)OCO3)N1CCN(Cc2ccccc2)CC1
i,CC(C)NC(=O)c1ccc(=O)n(Cc2cccc(F)c2)n1
i,O=C(NC1CCN(C(=O)c2cn(-c3ccc(Cl)cc3)nn2)CC1)c1ccc(F)c(F)c1
i,COc1ccc(-c2cc(N3CCC(C(=O)Nc4ccccc4C(C)C)CC3)ncn2)cc1
i,O=C(C1CCCC1)N1CCN(Cc2nncn2-c2ccccc2)CC1
i,Cc1ccc(C(=O)Nc2ccc3c(c2)OCCO3)cc1
i,N#Cc1ccccc1Cn1c(=O)n(CCCC(=O)NCc2ccc3c(c2)OCO3)c(=O)c2ccccc21
i,CCOCCn1c(=O)c2c(nc3n(-c4ccccc4C)c(-c4ccccc4)cn23)n(C)c1=O
i,Cc1ccc(-c2cn3cccnc3n2)cc1NC(=O)c1c(-c2ccccc2Cl)noc1C
i,CCN1C(=O)/C(=N\OC2OC(CO)C(O)C(O)C2NC(C)=O)c2ccccc21 (stereo not given)
i,Cn1c(CN2CCN(Cc3cccc(F)c3)CC2)nc2ccccc21
i,Cc1ccc(NC(=O)CSc2ncnc3nc(N4CCCC4)sc23)c(Cl)c1
i,COc1ccc(CCNC(=O)/C=C/c2ccc(Cl)cc2Cl)cc1OC
i,CC(CCc1ccccc1)NC(=O)c1cc(=O)c(OCc2ccc(F)cc2)cn1C (stereo not given)

5 records picked at random from the list so far, as already listed:
GIRK2 activ,Structure
i,CCCCn1c2c(c(=S)[nH]c1=O)CCC2
i,COc1ccccc1-n1c(C)c(C)n2c3c(=O)n(CCN4CCOCC4)c(=O)n(C)c3nc12
i,O=C(NC1CCN(C(=O)c2cn(-c3ccc(Cl)cc3)nn2)CC1)c1ccc(F)c(F)c1
i,Cc1ccc(C(=O)Nc2ccc3c(c2)OCCO3)cc1
i,Cc1nnc2c(SCC(=O)Nc3ccc(Br)cc3F)nc3ccccc3n12

The list goes on.
GIRK2 activ,Structure
i,COc1cc(OC)c(NC(=O)N2CCN(c3ccc(-n4cccc4)nn3)CC2)cc1Cl
i,Cc1cccn2c(=O)cc(OCC(=O)Nc3ccc(SC(F)F)cc3)nc12
i,Cc1nc(-c2nnc(NC(=O)c3cnn(-c4ccccc4)c3C)o2)cs1
i,CCCn1c(=O)c2sc(N3CCCC3)nc2n(CC(=O)Nc2cc(Cl)ccc2C)c1=O
i,CSc1ccc(CNC(=O)c2cccn2Cc2nc(-c3ccccc3)no2)cc1
i,COc1ccc(Cn2c(C(C)C)nc3c(c(=O)c4ccccc4n3C)c2=O)cc1
i,COc1ccccc1-c1c(C)oc2cc(OC(=O)c3cccs3)ccc2c1=O
i,Cc1cn2c3c(=O)n(Cc4ccc(Br)cc4)c(=O)n(C)c3nc2n1CCCO
i,Cc1nc(C)c(-c2ccc(OCCNC(=O)c3cc(-c4ccccc4)nn3C)nn2)s1
i,COc1cccc(/C=C2\Oc3cc(OC(=O)c4ccco4)ccc3C2=O)c1OC
i,CCC(C(=O)Nc1cc(-c2cccs2)nn1-c1nc(-c2ccccc2)cc(=O)[nH]1)c1ccccc1 (stereo not given)
i,CCOCCn1c(=O)c2c(nc3n(-c4cccc(C)c4)c(C)c(C)n23)n(C)c1=O
i,Cc1nc(-c2noc(-c3cccnc3)n2)cn1CC(=O)NCc1ccccc1Cl
i,O=C(NCCc1ccccc1)N1CCC(CSCc2ccco2)CC1
i,Cc1cccc(N2CCN(C(=O)CC3=NS(=O)(=O)c4ccccc4N3)CC2)c1C
i,O=C(c1ccc(=O)[nH]c1)N1CCN(C(=O)C2CC2c2ccccc2)CC1 (stereo not given)
i,O=C1CCCN1c1ccc(Cn2ccn3nc(-c4ccccc4Cl)cc3c2=O)cc1
i,COc1cc(N2CCN(S(=O)(=O)c3cc(OC)c(C)cc3C)CC2)nc(OC)n1
i,COc1ccc(Cl)cc1NC(=O)NCC(O)c1ccc2c(c1)CCO2 (stereo not given)
i,CC(C)NC(=O)c1ccc2c(=O)n(-c3ccc(F)cc3)c(SCC(=O)c3ccccc3)nc2c1
i,O=C(Nc1nnc(-c2ccc(Br)s2)o1)Nc1ccccc1C(F)(F)F
i,CN(CC(=O)N1CCC(O)CC1)c1nc2c(C(F)(F)F)cccc2s1
i,Cc1cn2c3c(=O)n(CCCO)c(=O)n(C)c3nc2n1-c1ccccc1F
i,COCCn1c(SCc2nc(-c3ccc(Br)cc3)no2)nc2ccsc2c1=O
i,Cc1cc2oc(=O)cc(CN(CC(C)C)CC(C)C)c2cc1O
i,COc1ccc2c(c1)CCN(C(=O)CNC(=O)c1ccc(=O)[nH]c1)C2
i,Cc1cc(C(F)(F)F)nc(CCNC(=O)c2ccc3nsnc3c2)n1
i,CC(=O)CC1(O)C(=O)N(CCCOc2cc(C)ccc2C(C)C)c2ccccc21 (stereo not given)
i,O=C(CN1C(=O)CCC1=O)OC1CN(c2nc3c(C(F)(F)F)cccc3s2)C1
i,Cn1c(=O)c2c(nc(N3CCNCC3)n2Cc2ccccc2Cl)n(C)c1=O

(continued)
GIRK2 activ,Structure
i,CC(C)C(=O)Nc1ccc(S(=O)(=O)N(Cc2cccs2)Cc2cccn2C)cc1
i,COc1ccc(CNC(=O)C2CCN(c3c(C#N)cnc4ccccc34)CC2)cc1OC
i,COc1ccc(S(=O)(=O)N2CCCc3cc(NS(=O)(=O)c4cc(C)ccc4C)ccc32)cc1
i,COc1nn(C)cc1C(=O)NCc1ccsc1
i,O=C(CSc1ncnc2sc3c(c12)CCCCC3)Nc1ccc2c(c1)OCCO2
i,COC(=O)c1cccc(NC(=O)CSc2cc(N3CCN(c4ccccc4OC)CC3)ncn2)c1
i,Cc1cccc(NC(=O)CSc2nccn2-c2ccc(C(=O)NCc3ccc(C)o3)cc2)c1
i,O=C(CCCS(=O)(=O)c1ccccc1)Nc1nc2cc3c(cc2s1)OCO3
+,CC1C(=O)N2CCCc3cc(NC(=O)C(=O)NCC(O)(c4ccccc4)C4CC4)cc1c32 (stereo not given)
i,COc1ccc(SCC2CCN(C(=O)c3ccc4c(c3)OCO4)CC2)cc1
i,COc1cccc(/C=C2\Oc3cc(OCC(=O)OC(C)(C)C)ccc3C2=O)c1OC
i,CC(=O)N1CCCSCC1CN1CCCCC1 (stereo not given)
i,Cc1ccc(Cn2c(-n3nc(C)cc3C)nc3c2c(=O)n(CC(N)=O)c(=O)n3C)cc1
i,COCCCNc1nc2c(c(=O)[nH]c(=O)n2C)n1CC(O)COc1ccc(Cl)cc1Cl (stereo not given)
i,COc1ccc(SCC2CCN(C(=O)Cc3ccc(S(=O)(=O)C(C)C)cc3)CC2)cc1
i,Cc1ccc(NC(=O)Cn2cnc(C)c(C)c2=O)cc1
i,O=S(=O)(NCC1(c2ccc(F)cc2)CC1)c1ccc(Cl)s1
i,COc1cc(OC)cc(C(=O)Oc2cc(C)c3c(c2)O/C(=C\c2cccnc2)C3=O)c1
i,Cc1ccc(NC(=O)c2cc(=O)c(OCc3ccc(F)cc3)cn2C)c(C)c1
i,NC(=O)c1oc2ccccc2c1NC(=O)CCCSc1ccccc1
i,COc1ccc(OC)c(-c2cc(C(=O)N(Cc3ccoc3)Cc3cccs3)n(C)n2)c1
i,CCOc1ccccc1-c1nc(Cn2nnc(C(=O)Nc3ccc(C(F)(F)F)cc3)c2N)c(C)o1
i,CC(O)C(O)(C(=O)OCc1cc(O)ccc1NC(=O)CCC(N)C(=O)O)C(C)O (stereo not given)
i,COc1ccc2c(c1)c(CC(=O)NCc1ccc(Cl)cc1)c(C)n2C(=O)c1ccc(Cl)cc1
i,COCC(C)NC(=O)C1CSCCC(=O)N1 (stereo not given)
i,COCCNC(=O)Cc1ccc(-n2c(=O)c3ccccc3n(Cc3cccc(Cl)c3)c2=O)cc1
i,O=C(CSc1ncnc2nc(N3CCc4ccccc4C3)sc12)NCc1ccccc1Cl
i,O=C1c2ccccc2C(=O)N1CCCCN(C(=O)c1ccc([N+](=O)[O-])cc1)c1ccc(F)cc1F
i,CS(=O)(=O)c1ccc2nc(NC(=O)c3coc(NC(=O)c4cnccn4)n3)sc2c1
i,COc1ccc(CCNC(=O)C(C#N)c2nc3ccccc3nc2N2CCCC2)cc1OC (stereo not given)
i,Cn1cccc(C(=O)NCCC(O)c2ccc3c(c2)OCO3)c1=O (stereo not given)
i,Cc1ccc(-c2noc(Cc3nnc(-c4ccc(C)c(C)c4)o3)n2)cc1C

4 entries from above, as labelled records:
O=C(Nc1nccs1)c1ccoc1COc1ccccc1
  GIRK2 activ: i
COc1ccc(-c2ccc(N3CCN(S(=O)(=O)Cc4ccccc4)CC3)nn2)cc1
  GIRK2 activ: i
Cc1cc(C)c(S(=O)(=O)NCCC(=O)NCc2cccnc2)cc1N(C)S(C)(=O)=O
  GIRK2 activ: i
Cc1onc(-c2ccccc2Cl)c1C(=O)N1CC(c2nc(-c3ccncc3)no2)C1
  GIRK2 activ: i
